TRPML1 ag: agonists of human TRPML1 channel | TRPML1-expressing cells, Ca2+ dye fluorescence, FDSS; host cell line not named in the record; reference of the full effect not given here | activation, % (no concentration beside the values) | 0.12% of 410,000 active; in the data active = activation above about 50%; inconclusive = about 30% to 50%; inactive = below about 30%; further: 0% is about no effect; the text of the record puts the active cut at 80%
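Tet-induced TRPML1-DL cells, 1,500 per well, cultured overnight, were loaded with a no-wash Ca2+ dye for 45–90 min. Calcium fluorescence was recorded on the FDSS for 110 s after compound addition, before the EC80 agonist (4 uM 54-4) was added.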
Menin-MLL FL inh: displaces fluorescein MLL peptide from human menin; Fluorescence polarization, fluorescein-MLL peptide displacement from menin; FP activity change, % at 61.4 µM; 290,000 tested, under 10 active; AID 1766; inconclusive = falling polarisation curve, or a change in total fluorescence; inactive = total fluorescence flat and polarisation flat or rising; no compound was filed as active; the % refers to the polarisation; negative = inhibition;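 further: % of control where 0% means no effect; inhibitors lower the polarisation; unlabelled MLL peptide was the positive control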
Sfp PPTase inh: Sfp phosphopantetheinyl transferase inhibition. 3.5% of 310,000 active. Q9F4F7. Biochemical Sfp PPTase activity, qHTS. Potency, µM, for the others: max response, negative = inhibition, hits mostly inhibitors. AID 1490; active means well fitted inhibition curve with a large enough effect;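 further: the enzyme is Sfp with the accession as filed and its product quenches rhodamine fluorescence; potency means the concentration at half of the fitted maximal effect; 0% = enzyme reaction without inhibitor and -100% = no enzyme wells; top concentration of the series not given in the record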
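Fluorescence-quenching assay with 15 nM Sfp, 5 uM rhodamine-CoA and 12.5 uM BHQ-2-labelled ybbR peptide in pH 7.6 Hepes/MgCl2 buffer. Enzyme was pre-incubated with compound for 15 min at room temperature. Rate was taken from the 30-min fluorescence change (525/598 nm).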
TRPV1 potentiator: potentiators of human vanilloid receptor 1 (TRPV1); Q8NER1; TRPV1-expressing cells, Fluo-8 calcium influx, capsaicin EC20 potentiation; host cell line not named in the record; control for the full effect not named in the record; potentiation, % at 8.33 µM; 0.02% of 320,000 active; AID 540277; active means potentiation above 80%; inconclusive means 30% to 80%; inactive means below 30%; further: 0% is about no effect
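Fluo-8 calcium influx in TRPV1-expressing cells, kinetic read (ex 480/em 520 nm). Compound added and read 3 min for agonist activity, followed by capsaicin at EC20 final and 2 min further read for enhancement.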
TRPML1 blocker: human mucolipin-1 channel inhibition; Q9GZU1; TRPML1-inducible cells, Ca2+ dye fluorescence, FDSS; active compounds read low; inhibition of EC80 agonist-evoked calcium signal; activity change, negative = inhibition, % (no concentration beside the values); 0.02% of 390,000 active; AID 624415; in the data active means activity change below about -50%; inconclusive means about -30% to -50%; inactive means above about -30%;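 further: stimulus is agonist 54-4 at its EC80 concentration; on the % scale 0 is the no-effect control and ±100 the full control effect; compound concentration not given in the record; the text of the record puts the active cut at -80%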
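Calcium fluorescence in TRPML1-DL cells induced overnight with Tet: a 110 s read after compound pin addition, then a 110 s antagonist read after challenge with 54-4 at 4 uM final (EC80).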
ClpP mod: qHTS Assay for Activators of ClpP. 1.9% of 340,000 active. ATP-dependent Clp protease proteolytic subunit (Bacillus subtilis (strain 168)), P80244. purified B. subtilis ClpP, FRET peptide cleavage, 20 min. Potency, µM (titrated, usually from 57.5 µM), for inactives: top-dose activity change, negative = active; active = well fitted falling curve with a large enough effect; inconclusive = small, poorly fitted or top-dose-only effect; inactive = no such curve, though single readings can be large or run the other way; further: potency means the concentration at half of the fitted maximal effect; the source files actives as falling curves though it sought activators and does not explain the sign; nearly all actives have a fitted effect of over 65% in size; many hits overshoot -100%
Target sequence (P80244 whole entry, looked up): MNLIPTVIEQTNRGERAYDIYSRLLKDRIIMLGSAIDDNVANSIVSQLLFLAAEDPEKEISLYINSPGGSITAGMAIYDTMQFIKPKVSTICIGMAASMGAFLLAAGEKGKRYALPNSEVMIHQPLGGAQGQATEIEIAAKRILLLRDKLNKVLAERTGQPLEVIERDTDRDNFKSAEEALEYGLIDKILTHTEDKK
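ClpP 10 microg/mL final, pH 8 Tris/KCl buffer with BSA, glycerol, Tween-20; compound pinned in; FRET-FV substrate; RT 20 min; Ex320/Em430; ΔFRET vs ADEP 5.8 microM, DMSO, no enzyme.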
PINK1 modulator: PINK1 expression modulation; PINK1 immunofluorescence, high-content cytometry, 24 h; Potency, µM (doses to about 76.6 µM), without a hit: top-dose activation (PINK1 increase), usual class: activators; 0.2% of 410,000 active; AID 624263; active = well fitted activation curve with a large enough effect; inconclusive = small, poorly fitted or top-dose-only effect; inactive = flat fitted curve, though single readings scatter; cell line not stated here;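 further: potency means the concentration at half of the fitted maximal effect; % of control where 0% means no effect; nearly all actives have a fitted effect of over 65% in size; a mitochondrial uncoupler was the plate control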
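PINK1 protein, normally rapidly degraded, was detected by immunofluorescence after 24 hour compound treatment of a stable cell line. Titration data (5 concentrations) came from laser-scanning cytometry, with CCCP-treated wells as controls.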
* hit, by the source's call; · = no result given; [ ] = dose if it differs, or a comment.

1) COc1cccc(C(=O)Nc2c3c(nn2-c2ccc([N+](=O)[O-])cc2)CS(=O)(=O)C3)c1
2) CC(=O)Nc1ccc(S(=O)(=O)NC2(C(F)(F)F)C(=O)Nc3c2c(=O)n(C)c(=O)n3C)cc1 (stereo not given)
3) COc1ccc(OC2(C)CCN(Cc3ccccc3OC(F)F)C2)cc1 (stereo not given)
4) CCC(C)c1ccc(NC(=O)CC(C)=O)cc1 (stereo not given)
5) CCOc1cc(C(=O)Nc2ccc(C(=O)NCCN(CC)CC)cc2)ccc1OCC(=O)N1CCOCC1
6) O=C(COC(=O)C1CCCCC1)Nc1cc([N+](=O)[O-])ccc1F
7) CC(C)(C)c1ccc(NC(=O)N2CCN(c3ccc([N+](=O)[O-])cn3)CC2)cc1
8) COCCCN=Cc1c(-c2ccccc2)[nH]n(-c2nc3ccccc3s2)c1=O

screen / no.,1,2,3,4,5,6,7,8
TRPML1 ag,0.2,0.8,-0.5,-1.5,-0.9,0.7,1.6,2.4
ClpP mod,-0.8%,-4.8%,0.3%,0.3%,·,-1.0%,·,·
PINK1 modulator,1.7%,-2.1%[38.3 µM],5.6%,-3.1%,-0.2%,0.9%,2.1%,1.8%
TRPV1 potentiator,5,-2,·,0,-13,-8,1,-1
Menin-MLL FL inh,0.2,0.9,·,-0.5,·,-0.2,1.2,5.1
Sfp PPTase inh,11%,11%,·,6%,·,5%,15%,-3%
TRPML1 blocker,4,4,·,-2,8,-11,20,53

Continued, starting with the last four of the part before.
5) CCOc1cc(C(=O)Nc2ccc(C(=O)NCCN(CC)CC)cc2)ccc1OCC(=O)N1CCOCC1
6) O=C(COC(=O)C1CCCCC1)Nc1cc([N+](=O)[O-])ccc1F
7) CC(C)(C)c1ccc(NC(=O)N2CCN(c3ccc([N+](=O)[O-])cn3)CC2)cc1
8) COCCCN=Cc1c(-c2ccccc2)[nH]n(-c2nc3ccccc3s2)c1=O
9) CCn1c(CNc2cccc(C(F)(F)F)c2)n[nH]c1=S
10) COc1cc2c(cc1OC)n(CC(=O)c1ccc(C)cc1C)c(=O)n1nc(CCn3nc(C)cc3C)nc21
11) CSCCC(NS(=O)(=O)c1ccc(C)cc1)C(=O)NNC(=O)c1csc(N2CCOCC2)n1 (stereo not given)
12) O=C(CCN1CCN(c2ccccc2F)CC1)c1ccc(Br)cc1
13) COn1c(SCc2ccc(C)cc2C)nc2ccccc2c1=O
14) Cc1ccccc1NS(=O)(=O)c1ccc2[nH]c(=O)[nH]c2c1
15) Cc1cnc2cc(Cl)ccc2c1SCC(=O)O
16) CCOc1ccc(C(=O)Nc2ccc3oc(-c4cccc5ccccc45)nc3c2)cc1
17) O=C(CSc1n[nH]c(-c2ccco2)n1)Nc1ccccc1F
18) O=C(CSc1nnc(-c2cccs2)n1CC1CCCO1)N1CCCC1 (stereo not given)
19) CCCC(C)c1nnc(NC(=O)C2CC(=O)N(CCc3ccc(F)cc3)C2)s1 (stereo not given)

screen / no.,5,6,7,8,9,10,11,12,13,14,15,16,17,18,19
TRPML1 ag,-0.9,0.7,1.6,2.4,-0.3,1.8,-0.4,-0.4,1.3,1.3,1.9,0.0,-0.3,-0.3,0.5
ClpP mod,·,-1.0%,·,·,-1.8%,-5.9%,-12%,0.7%,0.5%,·,-0.1%,4.3%,·,0.0%,·
PINK1 modulator,-0.2%,0.9%,2.1%,1.8%,-0.3%,-0.5%,-0.7%,7.0%,8.4%,1.6%,1.7%,4.2%,-0.9%,3.0%,0.9%
TRPV1 potentiator,-13,-8,1,-1,-2,·,-8,-11,2,6,19,·,13,2,6
Menin-MLL FL inh,·,-0.2,1.2,5.1,-5.0,·,·,1.5,3.6,-3.0,5.9,·,-1.2,11,-0.1
Sfp PPTase inh,·,5%,15%,-3%,-12%,·,18%,-26%,7%,19%,17%,·,4%,11%,28µM*
TRPML1 blocker,8,-11,20,53,18,-30,9,-7,-21,-3,-6,0,13,8,-3

Records listed above printed as active in Sfp PPTase inh.
# | structure | Menin-MLL FL inh | Sfp PPTase inh | TRPML1 blocker
19 | CCCC(C)c1nnc(NC(=O)C2CC(=O)N(CCc3ccc(F)cc3)C2)s1 (stereo not given) | -0.1 | 28µM* | -3

Screens: PubChem BioAssay, National Center for Advancing Translational Sciences (NCATS)

An unsorted share of the library; any-hit rate near 4.4%.
